Ran importin: inhibitors of Ran–importin-beta complex formation, primary screen, biochemical, CFP-Ran/YFP-importin-beta FRET, RCC1, cell-free (AID 434961). CFP-Ran/YFP-importin-beta FRET, cell-free; active compounds read high. inhibition, %. 0.2% of 7,700 active;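 active = more than half of the replicate wells above 15% inhibition; inconclusive = exactly half above it; inactive = fewer than half above it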;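 also: 0% = DMSO wells and 100% inhibition = RanGDP control wells on each plate; stock of unstated strength diluted about 400-fold; mean of two wells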
An asterisk follows results filed as active; ? = inconclusive. An excerpt; the hit share may differ from the screen's.

Ran importin | Compound
-1.4 | COc1ccc(NC(=O)Nc2ccc3c(c2)CC(=O)N([C@@H](C)CO)C[C@@H](C)[C@H](CN(C)S(=O)(=O)c2ccc(C)cc2)O3)cc1
1.1 | COc1ccc(NC(=O)N(C)C[C@@H]2Oc3c(cccc3N(C)C)C(=O)N([C@@H](C)CO)C[C@@H]2C)cc1
-0.8 | COc1ccc(CN(C)C[C@H]2Oc3ccc(NC(=O)C4CC4)cc3CC(=O)N([C@H](C)CO)C[C@@H]2C)cc1
7.8 | C[C@@H]1CN([C@@H](C)CO)C(=O)c2cccc(N(C)C)c2O[C@H]1CN(C)S(=O)(=O)c1ccc(Cl)cc1
7.0 | Cc1noc(C)c1NC(=O)Nc1ccc2c(c1)CC(=O)N([C@H](C)CO)C[C@H](C)[C@H](CN(C)Cc1ccc(C(F)(F)F)cc1)O2
-3.2 | Cc1noc(C)c1S(=O)(=O)Nc1ccc2c(c1)C(=O)N([C@@H](C)CO)C[C@@H](C)[C@H](CN(C)C(=O)Cc1ccccc1)OCCCC[C@@H](C)O2
-2.0 | CC(C)NC(=O)N(C)C[C@H]1Oc2ccc(NC(=O)CCCN(C)C)cc2CC(=O)N([C@@H](C)CO)C[C@@H]1C
4.3 | COc1ccc(S(=O)(=O)N(C)C[C@@H]2Oc3ccc(NS(=O)(=O)c4cccs4)cc3C(=O)N([C@@H](C)CO)C[C@H]2C)cc1
0.1 | C[C@H](CO)N1C[C@H](C)[C@H](CN(C)CC2CC2)Oc2ccc(NC(=O)Cc3cn(C)c4ccccc34)cc2CC1=O
-4.8 | C[C@H]1CN([C@@H](C)CO)C(=O)c2cc(NC(=O)Nc3ccc4c(c3)OCO4)ccc2O[C@H]1CN(C)S(=O)(=O)c1ccc(F)cc1
1.9 | C[C@H]1CN([C@@H](C)CO)C(=O)c2cccc(NS(=O)(=O)c3ccc(F)cc3)c2O[C@H]1CN(C)C(=O)NC1CCCCC1
4.5 | CC(C)NC(=O)N(C)C[C@@H]1OCCCC[C@H](C)Oc2ccc(NC(=O)C3CCCCC3)cc2C(=O)N([C@H](C)CO)C[C@@H]1C
-2.2 | C[C@H]1CN([C@@H](C)CO)C(=O)Cc2cc(NC(=O)Nc3cccc4ccccc34)ccc2O[C@@H]1CN(C)C(=O)NC1CCCCC1
? | C[C@@H]1CN([C@H](C)CO)C(=O)CCCn2nncc2CO[C@@H]1CN(C)Cc1ccccc1
5.0 | C[C@H](CO)N1C[C@H](C)[C@H](CN(C)C(=O)Nc2ccc3c(c2)OCO3)Oc2ccc(N(C)C)cc2CC1=O
-2.7 | C[C@@H]1CCCCO[C@H](CN(C)S(=O)(=O)c2cccs2)[C@@H](C)CN([C@H](C)CO)C(=O)c2cc(NC(=O)Cc3ccccc3)ccc2O1
-1.5 | CC(C)NC(=O)N(C)C[C@@H]1Oc2ccc(NC(=O)CCCN(C)C)cc2CC(=O)N([C@H](C)CO)C[C@@H]1C
3.6 | C[C@H](CO)N1C[C@H](C)[C@@H](CN(C)S(=O)(=O)c2cccs2)Oc2c(NS(=O)(=O)c3ccc(Cl)cc3)cccc2C1=O
2.6 | Cc1noc(C)c1NC(=O)N(C)C[C@@H]1Oc2ccc(N(C)C)cc2CC(=O)N([C@@H](C)CO)C[C@H]1C
1.1 | C[C@@H]1CN([C@H](C)CO)C(=O)Cc2cc(NC(=O)Nc3ccccc3)ccc2O[C@@H]1CN(C)C(=O)NC1CCCCC1
3.4 | C[C@H](CO)N1C[C@H](C)[C@@H](CN(C)C(=O)Cc2ccccc2)OCCCC[C@H](C)Oc2ccc(NS(C)(=O)=O)cc2C1=O
? | C[C@@H]1CN([C@H](C)CO)C(=O)Cc2cc(NS(=O)(=O)c3cccs3)ccc2O[C@@H]1CN(C)S(=O)(=O)c1ccccc1
-1.3 | CNC[C@@H]1Oc2c(NS(=O)(=O)c3c(C)noc3C)cccc2C(=O)N([C@H](C)CO)C[C@H]1C
-3.1 | Cc1noc(C)c1NC(=O)N(C)C[C@@H]1Oc2c(NC(=O)c3ccc(-c4nccs4)cc3)cccc2C(=O)N([C@H](C)CO)C[C@H]1C
4.6 | C[C@@H]1CN([C@H](C)CO)C(=O)c2cc(NC(=O)Nc3ccc4c(c3)OCO4)ccc2O[C@@H]1CN(C)Cc1ccc(C(=O)O)cc1
-2.9 | Cc1noc(C)c1NC(=O)N(C)C[C@@H]1Oc2c(NC(=O)C3CCOCC3)cccc2C(=O)N([C@@H](C)CO)C[C@H]1C
-0.8 | C[C@H](CO)N1C[C@H](C)[C@H](CN(C)C(=O)NC2CCCCC2)Oc2c(NS(=O)(=O)c3ccccc3)cccc2C1=O
-2.8 | CNC[C@H]1Oc2ccc(N(C)C)cc2CC(=O)N([C@@H](C)CO)C[C@@H]1C
4.9 | C[C@@H]1CN([C@@H](C)CO)C(=O)Cc2cc(NC(=O)Nc3ccc(F)cc3)ccc2O[C@@H]1CN(C)Cc1ccc2c(c1)OCO2
3.2 | C[C@@H]1CN([C@@H](C)CO)C(=O)Cc2cc(NC(=O)Nc3cccc4ccccc34)ccc2O[C@@H]1CN(C)C(=O)NC1CCCCC1

As entered above.
Ran importin, C[C@@H]1CN([C@H](C)CO)C(=O)Cc2cc(NC(=O)Nc3ccccc3)ccc2O[C@@H]1CN(C)C(=O)NC1CCCCC1 stands at 1.1
Ran importin, C[C@@H]1CN([C@@H](C)CO)C(=O)Cc2cc(NC(=O)Nc3cccc4ccccc34)ccc2O[C@@H]1CN(C)C(=O)NC1CCCCC1 stands at 3.2

(more compounds)
Ran importin | Compound
1.1 | C[C@@H]1CN([C@@H](C)CO)C(=O)c2cc(NC(=O)c3ccncc3)ccc2O[C@@H](C)CCCCO[C@H]1CN(C)C(=O)Nc1cccc2ccccc12
0.9 | C[C@H]1CN([C@@H](C)CO)C(=O)c2cc(NC(=O)Cn3cnnn3)ccc2O[C@H]1CN(C)Cc1ccc(Cl)c(Cl)c1
2.7 | C[C@@H]1CN([C@@H](C)CO)C(=O)Cc2cc(NS(=O)(=O)c3ccccc3)ccc2O[C@@H]1CN(C)C(=O)Nc1ccc(C(F)(F)F)cc1
-5.6 | C[C@H](CO)N1C[C@H](C)[C@@H](CN(C)C(=O)Nc2ccccc2)Oc2ccc(NC(=O)c3ccncc3)cc2CC1=O
-5.6 | Cc1noc(C)c1S(=O)(=O)Nc1cccc2c1O[C@@H](CN(C)C)[C@@H](C)CN([C@H](C)CO)C2=O
-5.6 | C[C@@H]1CN([C@H](C)CO)C(=O)c2cc(NC(=O)c3ccncc3)ccc2O[C@H]1CN(C)C(=O)NC1CCCCC1
-1.0 | Cc1noc(C)c1NC(=O)Nc1ccc2c(c1)CC(=O)N([C@@H](C)CO)C[C@@H](C)[C@@H](CN(C)Cc1ccc(C(F)(F)F)cc1)O2
? | C[C@H](CO)N1C[C@H](C)[C@H](CN(C)C(=O)CCCN(C)C)OCCCC[C@H](C)Oc2ccc(NS(=O)(=O)c3cccs3)cc2C1=O
0.9 | C[C@H](CO)N1C[C@H](C)[C@@H](CN(C)CC2CCCCC2)Oc2ccc(NC(=O)Nc3ccc4c(c3)OCO4)cc2C1=O
1.0 | COc1ccc(S(=O)(=O)N(C)C[C@H]2Oc3c(NC(=O)c4nc5ccccc5s4)cccc3C(=O)N([C@H](C)CO)C[C@@H]2C)cc1
2.2 | COc1ccc(S(=O)(=O)N(C)C[C@@H]2Oc3c(NC(=O)C4CC4)cccc3C(=O)N([C@H](C)CO)C[C@H]2C)cc1
5.8 | COc1ccc(CN(C)C[C@H]2Oc3ccc(NC(=O)Cc4ccccc4)cc3CC(=O)N([C@H](C)CO)C[C@H]2C)cc1
-3.1 | CC(C)NC(=O)Nc1ccc2c(c1)C(=O)N([C@@H](C)CO)C[C@H](C)[C@H](CN(C)C(=O)Nc1ccc3c(c1)OCO3)OCCCC[C@H](C)O2
-3.4 | COc1ccc(S(=O)(=O)N(C)C[C@H]2Oc3ccc(NC(=O)Cc4ccccc4)cc3CC(=O)N([C@@H](C)CO)C[C@@H]2C)cc1
-4.5 | C[C@H]1CCCCO[C@@H](CN(C)C(=O)C2CCCCC2)[C@@H](C)CN([C@@H](C)CO)C(=O)c2cc(NC(=O)c3ccncc3)ccc2O1
2.9 | C[C@@H]1CCCCO[C@@H](CN(C)C(=O)c2ccccc2)[C@@H](C)CN([C@H](C)CO)C(=O)c2cc(NC(=O)Nc3ccc4c(c3)OCO4)ccc2O1
2.9 | COc1ccc(S(=O)(=O)Nc2ccc3c(c2)C(=O)N([C@@H](C)CO)C[C@@H](C)[C@@H](CN(C)S(=O)(=O)c2c(C)noc2C)O3)cc1
10.2 | COc1ccc(NC(=O)Nc2cccc3c2O[C@@H](CN(C)C)[C@@H](C)CN([C@H](C)CO)C3=O)cc1
-7.4 | C[C@H](CO)N1C[C@H](C)[C@@H](CN(C)C(=O)NC2CCCCC2)Oc2ccc(NC(=O)Nc3ccc4c(c3)OCO4)cc2C1=O
-2.0 | C[C@H](CO)N1C[C@H](C)[C@@H](CN(C)C(=O)NC2CCCCC2)Oc2ccc(NC(=O)Nc3ccc(F)cc3)cc2C1=O
-9.0 | C[C@@H]1CCCCO[C@@H](CN(C)C(=O)CCCN(C)C)[C@H](C)CN([C@H](C)CO)C(=O)c2cc(NC(=O)Cc3ccccc3)ccc2O1
-1.3 | C[C@@H]1CN([C@@H](C)CO)C(=O)c2cc(NC(=O)C3CCCCC3)ccc2O[C@@H](C)CCCCO[C@@H]1CN(C)C(=O)Nc1ccccc1
-0.8 | C[C@@H]1CN([C@@H](C)CO)C(=O)c2cc(NC(=O)c3ccncc3)ccc2O[C@@H]1CN(C)C(=O)Nc1ccc(F)cc1
-2.2 | C[C@H](CO)N1C[C@H](C)[C@@H](CN(C)S(=O)(=O)c2ccccc2)OCCCC[C@H](C)Oc2ccc(NC(=O)CCC(F)(F)F)cc2C1=O
2.1 | COc1ccc(CN(C)C[C@@H]2Oc3ccc(NC(=O)Nc4c(C)noc4C)cc3CC(=O)N([C@@H](C)CO)C[C@@H]2C)cc1
-1.8 | C[C@@H]1CCCCO[C@H](CN(C)S(=O)(=O)c2cccs2)[C@@H](C)CN([C@H](C)CO)C(=O)c2cc(NS(=O)(=O)c3cccs3)ccc2O1
5.6 | C[C@H](CO)N1C[C@H](C)[C@@H](CN(C)C(=O)c2cc(-c3ccccc3)on2)OCc2cn(nn2)CCCC1=O
-0.6 | CC(C)NC(=O)Nc1ccc2c(c1)CC(=O)N([C@H](C)CO)C[C@H](C)[C@H](CN(C)CC1CC1)O2
-3.6 | COc1ccc(NC(=O)Nc2cccc3c2O[C@H](CN(C)S(=O)(=O)c2cccs2)[C@@H](C)CN([C@H](C)CO)C3=O)cc1
1.2 | C[C@H](CO)N1C[C@H](C)[C@@H](CN(C)C(=O)Nc2ccc(C(F)(F)F)cc2)Oc2ccc(NC(=O)Nc3ccccc3)cc2CC1=O
0.3 | C[C@@H]1CN([C@@H](C)CO)C(=O)CCCn2cc(nn2)CO[C@H]1CN(C)C(=O)Nc1cccc(Oc2ccccn2)c1
-4.6 | C[C@@H]1CN([C@H](C)CO)C(=O)Cc2cc(NS(=O)(=O)c3cccs3)ccc2O[C@@H]1CN(C)Cc1ccccc1
-3.7 | CNC[C@@H]1Oc2c(NC(=O)Nc3ccccc3)cccc2C(=O)N([C@H](C)CO)C[C@H]1C

Retrieved by compound from above, 4 records:
Ran importin | Compound
-1.3 | CNC[C@@H]1Oc2c(NS(=O)(=O)c3c(C)noc3C)cccc2C(=O)N([C@H](C)CO)C[C@H]1C
-1.8 | C[C@@H]1CCCCO[C@H](CN(C)S(=O)(=O)c2cccs2)[C@@H](C)CN([C@H](C)CO)C(=O)c2cc(NS(=O)(=O)c3cccs3)ccc2O1
4.6 | C[C@@H]1CN([C@H](C)CO)C(=O)c2cc(NC(=O)Nc3ccc4c(c3)OCO4)ccc2O[C@@H]1CN(C)Cc1ccc(C(=O)O)cc1
5.0 | C[C@H](CO)N1C[C@H](C)[C@H](CN(C)C(=O)Nc2ccc3c(c2)OCO3)Oc2ccc(N(C)C)cc2CC1=O

Reformatted as tab-separated lines: 2 of the compounds above.
SMILES	Ran importin
C[C@@H]1CN([C@H](C)CO)C(=O)Cc2cc(NS(=O)(=O)c3cccs3)ccc2O[C@@H]1CN(C)S(=O)(=O)c1ccccc1	?
CNC[C@@H]1Oc2c(NS(=O)(=O)c3c(C)noc3C)cccc2C(=O)N([C@H](C)CO)C[C@H]1C	-1.3

3 successive records from above, quoted:
Ran importin | Compound
-3.2 | Cc1noc(C)c1S(=O)(=O)Nc1ccc2c(c1)C(=O)N([C@@H](C)CO)C[C@@H](C)[C@H](CN(C)C(=O)Cc1ccccc1)OCCCC[C@@H](C)O2
-2.0 | CC(C)NC(=O)N(C)C[C@H]1Oc2ccc(NC(=O)CCCN(C)C)cc2CC(=O)N([C@@H](C)CO)C[C@@H]1C
4.3 | COc1ccc(S(=O)(=O)N(C)C[C@@H]2Oc3ccc(NS(=O)(=O)c4cccs4)cc3C(=O)N([C@@H](C)CO)C[C@H]2C)cc1

From PubChem BioAssay
